Assay outcomes: PubChem BioAssay, ICCB-Longwood Screening Facility, Harvard Medical School
MenB inh: blocks the Mycobacterium tuberculosis MenB enzyme; P9WNP5; MenB enzyme assay, absorbance read-out; some hits fall short of the stated cut; AID 540299; inhibition, %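 (about 12 µg/mL by stock and volumes)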; 0.43% of 100,000 active;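 active = mean of two replicates above 30%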;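 also: 0% = no compound and 100% = wells with inactive enzyme; the first replicate is given; strong numbers were not always called active; inactives centre near -10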
Target sequence (P9WNP5 whole entry, looked up): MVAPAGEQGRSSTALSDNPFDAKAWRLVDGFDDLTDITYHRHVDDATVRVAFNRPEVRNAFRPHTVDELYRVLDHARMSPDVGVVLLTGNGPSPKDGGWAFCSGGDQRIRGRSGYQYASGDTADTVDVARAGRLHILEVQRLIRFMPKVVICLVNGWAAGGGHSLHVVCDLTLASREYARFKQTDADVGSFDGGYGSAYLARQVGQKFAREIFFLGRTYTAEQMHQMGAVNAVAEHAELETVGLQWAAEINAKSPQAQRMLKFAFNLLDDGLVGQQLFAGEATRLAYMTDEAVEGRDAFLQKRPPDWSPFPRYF
PV pol inh: inhibitors of poliovirus RNA polymerase binding and polymerization; poliovirus polymerase elongation, fluorescence polarization; active compounds read low; % elongation, % (compound at 16.7 µg/mL); 0.66% of 150,000 active; AID 588519; in the data active = % elongation below about 90%; also: some results filed as inactive read as strong as hits
Mtb MbtI inh: MbtI salicylate synthase inhibition; P9WFX0; purified MbtI enzyme, fluorescence intensity read-out; inhibition, %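 (about 17 µg/mL by stock and volumes)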; 0.89% of 100,000 active; AID 493033;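 active = above 50% in both replicates, above 80% if mildly self-fluorescent; inactive = the rest, strongly fluorescent compounds included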;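 also: 0% = mean of negative and 100% = mean of positive controls; one replicate is shown; some compounds called inactive have numbers as strong as hits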
Target sequence (P9WFX0 whole entry, looked up): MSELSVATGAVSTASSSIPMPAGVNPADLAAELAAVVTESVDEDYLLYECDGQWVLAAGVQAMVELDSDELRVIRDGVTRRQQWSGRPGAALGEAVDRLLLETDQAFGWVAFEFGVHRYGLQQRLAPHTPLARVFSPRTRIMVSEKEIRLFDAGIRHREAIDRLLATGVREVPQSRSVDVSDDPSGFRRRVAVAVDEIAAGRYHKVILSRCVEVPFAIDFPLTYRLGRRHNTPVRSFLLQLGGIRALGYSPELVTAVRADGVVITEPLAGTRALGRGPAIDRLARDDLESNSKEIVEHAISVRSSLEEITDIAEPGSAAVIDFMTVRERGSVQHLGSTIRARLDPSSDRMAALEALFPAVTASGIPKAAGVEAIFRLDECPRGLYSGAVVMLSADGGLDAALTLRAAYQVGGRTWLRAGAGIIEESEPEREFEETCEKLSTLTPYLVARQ
PV pol inh intensity: recorded beside PV pol inh, whose call it bears; % elongation; measured here: total intensity read-out; formula for this scale not given here;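 total fluorescence in place of polarization; lower means less elongation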
* hit, by the source's call; i = inactive; . = not tested or not shown. Some of the compounds tested; count on the stated rates, not on these rows.

SMILES	MenB inh	PV pol inh	PV pol inh intensity	Mtb MbtI inh
O=c1[nH]c(N2CCCCC2)nc2ncn(Cc3ccccc3)c12	.	.	.	-4
CCCCN(CC)C(=O)Cn1cnc2ccc(S(=O)(=O)N3CCC(C)CC3)cc2c1=O	.	.	.	-3
CCN(CC)S(=O)(=O)c1ccc(C(=O)OCCN2C(=O)CCC2=O)cc1	.	.	.	-6
COc1ccccc1C(CCN)c1ccco1 (stereo not given)	.	.	.	-1
CCOc1ccccc1OC(=O)c1ccccc1	.	.	.	-8
C=CCn1ncc(CO)c1C	.	.	.	-11
O=C(O)C1CCC(=O)N1C1CCCC1 (stereo not given)	.	.	.	-1
Cc1[nH]n2c(=O)c3c(nc2c1-c1ccc(Cl)cc1)CCC3	.	.	.	-2
N/C(=N\O)C(c1ccccc1)c1ccccn1 (stereo not given)	.	.	.	2
O=C1c2ccccc2C(=O)N1c1ccc2[nH]c(=S)sc2c1	.	.	.	42
CCn1c(CSc2nc(C)cc(=O)[nH]2)nc2ccccc21	.	.	.	-4
CCOc1ccc(NC2CCN(C(C)=O)CC2)cc1	.	.	.	-1
Cc1[nH]c(=O)[nH]c(=O)c1CC(=O)O	.	.	.	-6
C=C(C)n1c(=O)[nH]c2ccccc21	.	.	.	-6
OC(CNC1CCCCC1)CNC1CCCCC1	.	.	.	-4

Continued; it opens with the 3 that closed the last part.
SMILES	MenB inh	PV pol inh	PV pol inh intensity	Mtb MbtI inh
Cc1[nH]c(=O)[nH]c(=O)c1CC(=O)O	.	.	.	-6
C=C(C)n1c(=O)[nH]c2ccccc21	.	.	.	-6
OC(CNC1CCCCC1)CNC1CCCCC1	.	.	.	-4
Cn1c(=O)n(C)c2cc(C(N)=O)ccc21	.	.	.	20
CCCSc1nc2c(c(=O)[nH]c(=O)n2C)n1C(C)C	.	.	.	17
C=CC(C)(O)CC1C(C)(O)CCC2C(C)(C)CCCC21C (stereo not given)	.	.	.	1
Cc1ccc(-n2cccc2)c(O)c1	.	.	.	-4
COC(=O)Cn1c(C)nc(=O)c(-c2ccccc2)c1C	.	.	.	-6
Cc1ccc(CN2C(=O)CCC2C(=O)O)cc1 (stereo not given)	.	.	.	-8
O=C(c1ccc2c(c1)N(Cc1cccc(Cl)c1)C(=O)CS2)N1CCOCC1	.	.	.	-10
N=c1sccn1CC(=O)c1cccs1	.	.	.	-1
CC1CCCC(C)N1CCCNC(=O)c1csc2c1CCCC2 (stereo not given)	.	.	.	-12
COc1ccc(OC)c(S(=O)(=O)N2CCCc3ccccc32)c1	.	.	.	9
O=c1cc(C2CCNCC2)[nH][nH]1	.	.	.	-10
O=C1CC(c2ccc(S(=O)(=O)NCCc3ccccc3)cc2)CN1 (stereo not given)	.	.	.	-19
NC(=O)C1CC(=O)N(c2ccc(OCC(=O)Nc3ccccc3)cc2)C1 (stereo not given)	.	.	.	-9
CCCN(CCC)C(=O)c1ccccc1NC(=O)c1ccccc1Cl	.	.	.	-2
Cc1ccc(NCc2c(C#N)c3ccccc3n2C)cc1	.	.	.	-10

A second format for two compounds above.
smiles | MenB inh | PV pol inh | PV pol inh intensity | Mtb MbtI inh
CCCN(CCC)C(=O)c1ccccc1NC(=O)c1ccccc1Cl | . | . | . | -2
Cc1ccc(NCc2c(C#N)c3ccccc3n2C)cc1 | . | . | . | -10

The list goes on.
SMILES	MenB inh	PV pol inh	PV pol inh intensity	Mtb MbtI inh
CNCC(O)c1cccc(OC(=O)c2ccccc2C)c1 (stereo not given)	.	.	.	-6
COc1ccc(OC)c(-c2sccc2CC(=O)O)c1	.	.	.	1
O=C1CC(C(=O)O)C2(CCCCC2)O1 (stereo not given)	.	.	.	-3
CCS(=O)(=O)N1CCC(C(=O)NCc2ccc3c(c2)OCO3)CC1	.	.	.	-11
O=C(Nc1c[nH]c(=O)[nH]c1=O)C(c1ccccc1)c1ccccc1	.	.	.	-14
OC(CN1CCCCC1)Cn1c2c(c3ccccc31)CCCC2 (stereo not given)	.	.	.	-20
COC(=O)c1sc2ccccc2c1NC(=O)c1ccc(N2C(=O)CCC2=O)cc1	.	.	.	-8
CCCCn1c(=NC(=O)C(C)(C)C)c(C(=O)OCC)cc2c(=O)n3ccccc3nc21	.	.	.	41
Cc1nc(-c2ccccc2O)n(S(=O)(=O)N(C)C)n1	.	.	.	-9
Nc1ccc2oc(-c3ccc(-c4nc5cc(N)ccc5o4)cc3)nc2c1	.	.	.	-10
CCc1nn(CCCC(=O)N2CCc3ccccc3C2)c(=O)c2cc3occc3n12	.	.	.	-2
O=C(NCC1(c2ccccc2)CCOCC1)c1ccco1	.	.	.	-9
COc1cc(C(=O)N(Cc2ccco2)c2ccc(O)cc2)cc(OC)c1OC	.	.	.	-11
C=CCc1cc(C(=O)N2CCCC2)ccc1O	.	.	.	-7
CCOC(=O)C1CN(c2ccc(C)cc2)CC1=O (stereo not given)	.	.	.	4

Overlap with the part before: 6 compounds, then new ones.
SMILES	MenB inh	PV pol inh	PV pol inh intensity	Mtb MbtI inh
Nc1ccc2oc(-c3ccc(-c4nc5cc(N)ccc5o4)cc3)nc2c1	.	.	.	-10
CCc1nn(CCCC(=O)N2CCc3ccccc3C2)c(=O)c2cc3occc3n12	.	.	.	-2
O=C(NCC1(c2ccccc2)CCOCC1)c1ccco1	.	.	.	-9
COc1cc(C(=O)N(Cc2ccco2)c2ccc(O)cc2)cc(OC)c1OC	.	.	.	-11
C=CCc1cc(C(=O)N2CCCC2)ccc1O	.	.	.	-7
CCOC(=O)C1CN(c2ccc(C)cc2)CC1=O (stereo not given)	.	.	.	4
O=C(OCCN1CCCCC1)c1ccc(O)cc1	.	.	.	-2
Cc1cc(S(=O)(=O)N2CCN=C2c2ccccc2)ccc1F	.	.	.	-7
S=C(NCC(c1ccco1)N1CCCC1)Nc1ccccc1 (stereo not given)	.	.	.	40
COc1ccc(C/C(N)=N/O)cc1	.	.	.	-8
CCOC(=O)CN1C(=O)C2C3c4ccccc4C(c4ccccc43)C2C1=O (stereo not given)	.	.	.	-5
CS(=O)(=O)c1nncn1-c1ccccc1	.	.	.	-12
Cc1ccc(-c2n[nH]c(=O)c3ccccc23)cc1S(=O)(=O)NCCN1CCOCC1	.	.	.	-10
O=C(O)c1cc(-c2ccco2)on1	.	.	.	2
CC(C)(C)C1CCC(OC(=O)CCC(=O)Nc2nccs2)CC1 (stereo not given)	.	.	.	-12
O=c1[nH]c(CN2CCOCC2)nc2c1oc1ccccc12	.	.	.	-1
Oc1ccccc1Oc1ncc(Br)c(N2CCOCC2)n1	.	.	.	-8
COC(=O)c1cn(NC(=O)Cc2ccccc2OC)c(=O)c2ccccc12	.	.	.	-14
CCOC(=O)CCc1c(C)n[nH]c1C	.	.	.	-8
NC(=O)c1ccc2c3c(cccc13)CC2	.	.	.	i
CCOc1ccc(C2CSc3nc4ccccc4n3C2=O)cc1 (stereo not given)	.	.	.	3
CC1=Nc2ccccc2N=C(N)C1c1ccccc1 (stereo not given)	.	.	.	-2
O=C(c1cccs1)c1coc2ccc(O)c(CN3CCCCC3)c12	.	.	.	14
NS(=O)(=O)c1ccc(NC(=O)c2ccccc2C(=O)O)cc1	.	.	.	-14
COCCCn1c(-c2ccc(F)cc2)nc2c(c(=O)c3ccccc3n2C)c1=O	-6	.	.	.
COc1ccc(-c2c(NC(=O)C(C)C)n(C)c3ccccc3c2=O)cc1	-11	.	.	.
Cc1c(C=Nc2ccc(S(=O)(=O)N(C)C)cc2)c(O)n(C)c(=O)c1C#N	-9	.	.	.
Cn1nc(-c2ccccc2F)c2cc(C(=O)NCCc3ccc(Cl)cc3)sc21	.	94	97	.
O=C(CSc1nc2c([nH]c3ccccc32)c(=O)n1-c1ccc(F)cc1)NCC1CCCO1 (stereo not given)	.	110	116	.
Cc1c(C(c2ccc(O)cc2)c2c(O)c3ccccc3oc2=O)c(=O)n(-c2ccccc2)n1C (stereo not given)	.	109	108	.
Cc1coc2cc3oc(=O)c(CC(=O)N4CCCCC4)c(C)c3cc12	.	111	104	.
O=C(NCc1ccc(Cl)cc1)C1CCN(S(=O)(=O)c2ccc(F)cc2)CC1	.	107	114	.
CCOCCCn1c(=N)c(C(=O)NCc2cccnc2)cc2c(=O)n3cc(C)ccc3nc21	.	113	116	.
Cc1nn(CCCC(=O)NCc2ccc(OC(C)C)cc2)c(=O)c2c1sc1ccccc12	.	101	101	.
Cc1cc(C)c(NC(=O)c2ccc3nc(C(C)C)oc3c2)c(C)c1	.	104	105	.
CCn1c(CNC(=O)C23CC4CC(CC(C4)C2)C3)nnc1SCC(=O)Nc1ccccc1	.	100	102	.
COc1ccc(NC(=O)CN(C)S(=O)(=O)c2ccc3c(c2)c(=O)n(C)c(=O)n3C)cc1	.	100	98	.
CCSc1nnc2c(n1)OC(c1ccc(OCC(=O)O)cc1)Nc1ccccc1-2 (stereo not given)	.	99	90	.
O=C(CN1C(=O)CCc2cc(S(=O)(=O)N3CCCCC3)ccc21)NCc1ccc(Cl)cc1	.	105	109	.
CCc1nn(CC(=O)NCC(C)c2ccccc2)c(=O)c2cc3occc3n12 (stereo not given)	.	109	111	.
COc1cc(NC(=O)c2cc(-c3cccc(OC)c3)n[nH]2)cc(OC)c1	.	110	111	.
CCN(CCCNC(=O)c1cc2cc3cc(OC)ccc3nc2s1)c1ccccc1	.	117	115	.
COc1ccc(Cl)cc1NC(=O)c1ncn(-c2ccccc2)n1	.	106	107	.
Cc1ccc(-c2cc(C(=O)NCc3cnn(C)c3C)c3ccccc3n2)cc1C	.	107	110	.
COc1ccc(Br)c(C(=O)Nc2cc3c(cc2N2CCCCC2)n(C)c(=O)c(=O)n3C)c1	.	107	111	.
Cc1c(CNC2CCCCC2)c(C(=O)O)c(C)n1Cc1ccccc1F	.	106	106	.
COc1ccccc1NC(=O)c1ccc2oc(=O)c(S(=O)(=O)c3ccccc3)cc2c1	.	111	110	.
Cc1cccc(Cn2c(CN3CCC(C(=O)NCc4cccnc4)CC3)cc3ccccc32)c1	.	110	115	.
Cc1cccc(C(C)C)c1NC(=O)C1CCCN1S(=O)(=O)c1cccc2nsnc12 (stereo not given)	.	102	103	.
Cc1ccc(C(=O)c2cn(Cc3cc(C)ccc3C)c3nc(C)ccc3c2=O)cc1	.	106	113	.
Cc1nc2ccccc2c(=O)n1-c1ccc(NC(=O)c2ccccc2[N+](=O)[O-])cc1	.	107	112	.
CCOc1ccc(NC(=O)CSc2ccc(-c3sc(-c4ccccc4)nc3C)nn2)cc1	.	109	108	.
Fc1ccc(Cc2cn3cc(-c4ccc(Cl)cc4)nc3s2)cc1	.	106	111	.
CCCN(CCC)CCCNC(=O)c1nn(C)c2c1CS(=O)(=O)c1ccccc1-2	.	108	105	.
Cc1ccc(-n2nc(CO)c(C(=O)NC(C)c3ccccc3)n2)cc1C (stereo not given)	.	102	105	.
CCOc1ccccc1N(CC)C(=O)c1noc2c1COc1ccc(C)cc1-2	.	107	114	.
CCN(CCCNC(=O)c1ccc(Sc2ccc(Cl)cc2)c(NC(C)=O)c1)c1ccccc1	.	113	115	.
O=C(CCn1c(=O)c2ccccc2n(CC(=O)Nc2ccc(F)cc2)c1=O)NCCc1ccccc1	.	115	110	.
Cc1ccc(C)c(Cn2c(SCC(=O)N(C)Cc3ccccc3)nc3ccccc32)c1	.	111	116	.
COc1ccc(Nc2cc(C)c3cc(NC(=O)Cc4ccc(Cl)cc4)ccc3n2)cc1	.	108	110	.
